High-throughput results (PubChem BioAssay)
Vaccinia mCherry: inhibitors of vaccinia virus infection (mCherry reporter signal) | Vaccinia virus mCherry reporter infection, fluorescence; about a quarter of the inactives have no number | Potency, µM (titrated, usually from 36.5 µM), without a hit: at the top dose activity change, negative = inhibition, actives largely listed as inhibitors | actives 0.63% (n = 310,000); active = well fitted inhibition curve with a large enough effect; inconclusive = small, poorly fitted or top-dose-only effect; inactive = no such curve, though single readings can be large or run the other way; tested in A549 cells; further: nearly all actives have a fitted effect of over 35% in size; inactives centre near -10
Vaccinia Venus: inhibitors of vaccinia virus (Venus reporter) | AID 720580 | Vaccinia virus Venus reporter expression, fluorescence | actives 0.46% (n = 330,000) | Potency, µM (titrated, usually from 36.5 µM), for the others: at the highest dose activity change, negative = inhibition, usual class: inhibitors; active means well fitted inhibition curve with a large enough effect; inconclusive means small, poorly fitted or top-dose-only effect; inactive means no such curve, though single readings can be large or run the other way; tested in A549 cells; further: nearly all actives have a fitted effect of over 30% in size; inactives centre near -10
* = called active by the depositor; i = inactive; u = inconclusive; & = joins results of further samples; [ ] = another dose, or the depositor's remark. On the % scale 0 is the no-effect control and ±100 the full control effect; potency means the concentration at half of the fitted maximal effect.

#1 COc1cc(/C=C2/C(=N)N3C=CSC3=NC2=O)ccc1OCCCOc1ccccc1C
#2 COc1cccc(COC(=O)C2CC(=O)N(Cc3ccc(C)cc3)C2)c1OC (configuration not stated)
#3 O=C(NCCCN1CCOCC1)c1ccco1
#4 COc1cc(-c2n[nH]c(=S)n2-c2ccccc2C(F)(F)F)cc(OC)c1OC
#5 CN(C(=O)C(=O)Nc1ccc2nc3n(c(=O)c2c1)CCCCC3)c1cccc(C(F)(F)F)c1
#6 CCOC(=O)CCCCCC(=O)Nc1ccc2c(c1)C(=O)N([C@@H](C)CO)C[C@H](C)[C@H](CN(C)S(=O)(=O)c1ccc(OC)cc1)OCCCC[C@H](C)O2
#7 CCCC(=O)Nc1ccccc1NC(=O)c1ccc(OC(C)=O)cc1
#8 CCc1ccc(C(=O)C23CN4CN(CN(C4)C2)C3)cc1

Screen / compound no.,1,2,3,4,5,6,7,8
Vaccinia mCherry,i,i,-2%,i,-2%,-19%,-19%,-15%
Vaccinia Venus,-6%,-16%,4%,-17%,-3%,-20%,11%,-4%

#9 CC1(C)CC(=Cc2ccccc2[N+](=O)[O-])C(=O)c2ccccc21
#10 Cc1cccc(C(=O)N[C@H](C(=O)Nc2ncc(C)s2)C(C)C)c1
#11 Cc1cc(C)c2cc(CNC3CCCC3)c(Cl)nc2c1
#12 CCN(CC)CCCNC1=C(Cl)C(=O)c2ccccc2C1=O
#13 CCc1nc2ccc(C(=O)NCCCn3ccnc3)cn2c1N(C)CCC(C)C
#14 Cc1ccc(-c2nc(CS(=O)(=O)CC(=O)NCCc3ccccc3)c(C)o2)cc1
#15 CCC(C)c1ccccc1N1CC(C(=O)Nc2ccc(N3CCOCC3)cc2)CC1=O (configuration not stated)
#16 N#Cc1ccccc1NC(=O)COC(=O)/C=C/c1cn(-c2ccccc2)nc1-c1ccc(Cl)cc1

Screen / compound no.,9,10,11,12,13,14,15,16
Vaccinia mCherry,-18%,13µM*,i,u,18%,-8%,-10%,-6%
Vaccinia Venus,-17%,u,-28%,u,-17%,-15%,-3%,-2%

Arranged by length of the SMILES (low to high): four of the compounds above.
#11 Cc1cc(C)c2cc(CNC3CCCC3)c(Cl)nc2c1
#9 CC1(C)CC(=Cc2ccccc2[N+](=O)[O-])C(=O)c2ccccc21
#15 CCC(C)c1ccccc1N1CC(C(=O)Nc2ccc(N3CCOCC3)cc2)CC1=O (configuration not stated)
#16 N#Cc1ccccc1NC(=O)COC(=O)/C=C/c1cn(-c2ccccc2)nc1-c1ccc(Cl)cc1

Screen / compound no.,11,9,15,16
Vaccinia mCherry,i,-18%,-10%,-6%
Vaccinia Venus,-28%,-17%,-3%,-2%

(cont.)
#17 Cc1ccc(N(C)C(=O)CCS(=O)(=O)c2cc3c(cc2Cl)NC(=O)CO3)cc1
#18 Cc1cccc(N2CCN(C(=O)CCCn3c(=O)[nH]c4ccsc4c3=O)CC2)c1C
#19 O=C(COc1ccccc1)NNC(=O)c1cc2ccccc2oc1=O
#20 O=C(COC(=O)C1CC2C=CC1C2)Nc1ccccc1[N+](=O)[O-] (configuration not stated)
#21 NCCCCc1cn(CC(=O)N2CCNCC2)nn1
#22 Cc1cccc(OCCCn2ccnc2)c1
#23 CCOC(=O)C1(Cc2cccc(F)c2)CCN(Cc2cnn(CC)c2)CC1
#24 CC1(C)Cc2ccccc2C(COc2ccccc2)=N1

Screen / compound no.,17,18,19,20,21,22,23,24
Vaccinia mCherry,-6%&-15%,-29%,i,i,-13%,-1%,0%,u
Vaccinia Venus,-24%&6%,-11%,-3%,-5%,-8%,-14%,-2%,-3%

#25 Clc1ccc(Br)c(-c2nc3ccccc3[nH]2)c1
#26 Cc1ccc(C)c(-c2csc(N/N=C/c3ccco3)n2)c1
#27 CC(NS(=O)(=O)c1ccc(Br)cc1)C(=O)NC1CCCCCC1 (configuration not stated)
#28 COc1ccccc1NC(=O)c1ccc2c(c1)C(=O)N(c1ccccc1OC)C2=O
#29 CCCCC/C=C/C1=CC(=O)C[C@H](c2ccc(OC)c(OC)c2)C1
#30 OC(c1ccccc1)(c1ccccc1)c1ncc[nH]1
#31 O=C(O)c1ccc(-c2ccc(/C=c3/sc4nc5ccccc5n4c3=O)o2)cc1Cl
#32 Cc1cc(C)c(C(=O)N(C)CC2CCCN(CCc3ccccc3F)C2)o1 (configuration not stated)

Screen / compound no.,25,26,27,28,29,30,31,32
Vaccinia mCherry,-8%,u,-2%,-2%,-14%,i,-12%,-2%
Vaccinia Venus,-18%,4%,-21%,-17%,-26%,11%,16%,-18%

#33 CCC(=O)Nc1ccc(OCc2nnc3c4ccccc4c(C)nn23)cc1
#34 CCCc1cc(C(=O)Nc2ccc(CC)cc2)no1
#35 O=S(=O)(Nc1cccc(-c2ccc(N3CCOCC3)nn2)c1)c1ccc(Cl)c(Cl)c1
#36 O=C(C[C@H]1C[C@H](C(=O)N2CCOCC2)[C@@]2(CCC3CCCC3)c3[nH]c4ccc(Cl)cc4c3CCN2C1=O)NCC12CC3CC(CC(C3)C1)C2
#37 NNC(=O)c1sc2cc(C(F)(F)F)cnc2c1-c1ccccn1
#38 C/C(CS(=O)(=O)c1ccc(Cl)c(Cl)c1)=N/NC(N)=S
#39 CC(=O)N(CCc1ccccc1)Cc1cc2ccc(C)c(C)c2[nH]c1=O
#40 C[N+](C)(C)CCNC(=O)c1c(O)c2c([nH]c1=O)CCCC2

Screen / compound no.,33,34,35,36,37,38,39,40
Vaccinia mCherry,-12%,37%[activator],i,-25%,9%,-27%,0%,-10%
Vaccinia Venus,-8%,0%,-5%,u,2%,-28%,-15%,-7%

#41 CCOC(=O)N1CCN(C(=O)Nc2ccc3oc(C)nc3c2)CC1
#42 CCOc1ccc(-n2c(SCC(=O)NCc3ccco3)nc3ccccc3c2=O)cc1
#43 Cc1cc(C)c(NC(=O)CS(=O)CC(=O)N2CCN(c3cccc(C)c3C)CC2)c(C)c1 (configuration not stated)
#44 CCCCNC(=O)CSc1nc2ccc(N3CCOCC3)cc2c(=O)n1Cc1ccc(OC)cc1
#45 O=Nc1c(O)ccc2cc(S(=O)(=O)O)ccc12
#46 COC(=O)c1ccccc1NC(=O)c1cnc2c(-c3cccc(C)c3)c(C)nn2c1C
#47 Nc1ccccc1-c1nnc(SCC(=O)Nc2ccccc2OC(F)F)[nH]c1=O
#48 O=C(CCn1c(=O)oc2ccccc21)Nc1cccc([N+](=O)[O-])c1

Screen / compound no.,41,42,43,44,45,46,47,48
Vaccinia mCherry,i,-5%,-11%,-8%,-9%,-14%,i,-10%
Vaccinia Venus,-11%,2%,-17%,-5%,-6%,-3%,31%[activator],-4%

Compound profiles, from the list above:
Entry for O=Nc1c(O)ccc2cc(S(=O)(=O)O)ccc12 : Vaccinia mCherry = -9%; Vaccinia Venus = -6%
Entry for Nc1ccccc1-c1nnc(SCC(=O)Nc2ccccc2OC(F)F)[nH]c1=O : Vaccinia mCherry = i; Vaccinia Venus = 31%[activator]

(next part)
#49 O=C(CSCc1ccccc1)NNc1c(F)c(F)cc(F)c1F
#50 O=C(OCC(=O)N1CCC(Cc2ccccc2)CC1)c1ccccc1O
#51 Cc1onc(-c2ccccc2Cl)c1C(=O)NCc1ccccc1
#52 CCS(=O)(=O)N1CCC(C(=O)OCC(=O)c2ccc(Br)cc2)CC1
#53 CCOC(=O)N1CCN(C(=O)CSc2ccc3nnc(-c4ccccn4)n3n2)CC1
#54 CCCCCNS(=O)(=O)c1cc(C)ccc1OC
#55 CCN(CC)S(=O)(=O)c1ccc(N2CCCC2)c(NC(=O)c2ccc(N3CCCC3=O)cc2)c1
#56 Cc1cc(C)n2nc(CC(=O)NCc3ccccc3Cl)nc2n1

Screen / compound no.,49,50,51,52,53,54,55,56
Vaccinia mCherry,-14%,-36%,-16%,-11%,-4%,i,i,-6%
Vaccinia Venus,4%,1%,-10%,8%,-6%,-13%,-14%,1%

Five entries from above, reformatted:
| entry | mol | Vaccinia mCherry | Vaccinia Venus |
| --- | --- | --- | --- |
| 49 | O=C(CSCc1ccccc1)NNc1c(F)c(F)cc(F)c1F | -14% | 4% |
| 50 | O=C(OCC(=O)N1CCC(Cc2ccccc2)CC1)c1ccccc1O | -36% | 1% |
| 51 | Cc1onc(-c2ccccc2Cl)c1C(=O)NCc1ccccc1 | -16% | -10% |
| 52 | CCS(=O)(=O)N1CCC(C(=O)OCC(=O)c2ccc(Br)cc2)CC1 | -11% | 8% |
| 53 | CCOC(=O)N1CCN(C(=O)CSc2ccc3nnc(-c4ccccn4)n3n2)CC1 | -4% | -6% |

The results go on:
#57 CCCCc1cc(=O)oc2cc(C)cc(OCC(=O)Nc3cccnc3)c12
#58 Cn1cc(-c2csc(C(O)c3ccc(F)c(F)c3)n2)cn1 (configuration not stated)
#59 O=C(Nc1cccc(Cl)c1)c1ccc(OC(=S)N2CCOCC2)cc1
#60 O=c1nc2c(O)cccn2c2c1c(=O)[nH]c1ccccc12
#61 CCc1ccc(CN(Cc2ccco2)C(=O)c2cc(-c3ccc(Cl)cc3)on2)cc1
#62 CCOC(=O)[C@]12Cc3cc(Cl)ccc3[C@H]1N(C(C)C)C(=O)c1ccccc12
#63 COCCCn1c(SCC(=O)Nc2ccc(NC(C)=O)cc2)nc2sc3c(c2c1=O)CCC3
#64 CC(C)Cn1cnc2c(SCc3ccccn3)nc(N)nc21

Screen / compound no.,57,58,59,60,61,62,63,64
Vaccinia mCherry,i,-5%,-12%,u,-24%,u,-8%,-10%
Vaccinia Venus,-15%,-10%,-14%,-16%,-7%,u,3%,-8%

2 entries picked at random from those above:
#19 O=C(COc1ccccc1)NNC(=O)c1cc2ccccc2oc1=O
#25 Clc1ccc(Br)c(-c2nc3ccccc3[nH]2)c1

Screen / compound no.,19,25
Vaccinia mCherry,i,-8%
Vaccinia Venus,-3%,-18%

(list continues)
#65 CC(Oc1ccccc1F)C(=O)NNC(=O)CCNC(=O)c1ccco1 (configuration not stated)
#66 Cc1ccc(COc2ccccc2C(=S)N2CCCC2)cc1
#67 O=C(Nc1ccccc1N1CCCC1)C1CCN(C(=O)c2ccc(F)cc2)CC1
#68 CC(C)C(NC(=O)OCc1ccccc1)C(=O)N1CCOCCOCCOCC1 (configuration not stated)

Screen / compound no.,65,66,67,68
Vaccinia mCherry,-16%,-1%,-1%,-2%
Vaccinia Venus,-14%,-9%,-15%,-15%
